High-throughput results deposited in PubChem BioAssay by National Center for Advancing Translational Sciences (NCATS).
ClpP mod: qHTS Assay for Activators of ClpP | purified B. subtilis ClpP, FRET peptide cleavage, 20 min | Potency, µM (doses to about 57.5 µM), for inactives: top-dose activity change, negative = active | hit rate 1.9% among 340,000; active = well fitted falling curve with a large enough effect; inconclusive = small, poorly fitted or top-dose-only effect; inactive = no such curve, though single readings can be large or run the other way; note: potency is the fitted concentration of half-maximal effect; the source files actives as falling curves though it sought activators and does not explain the sign; nearly all actives have a fitted effect of over 65% in size; many hits overshoot -100%
Target sequence (P80244 whole entry, looked up): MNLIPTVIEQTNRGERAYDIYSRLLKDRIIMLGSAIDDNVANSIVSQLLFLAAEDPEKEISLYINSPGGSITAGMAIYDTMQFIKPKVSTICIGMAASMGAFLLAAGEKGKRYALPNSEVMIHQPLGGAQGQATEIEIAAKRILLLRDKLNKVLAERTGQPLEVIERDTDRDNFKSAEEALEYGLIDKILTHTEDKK
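Buffer: 100 mM Tris/HCl pH8, 100 mM KCl, 0.05% low protease BSA, 2.5% glycerol, 0.01% Tween-20. ClpP 10 microg/mL final; 20 min RT; delta FRET normalized to ADEP and DMSO controls.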
TRPML1 ag: human mucolipin-1 channel agonism; activation, % (no concentration beside the values); Q9GZU1; hit rate 0.12% among 410,000; TRPML1-expressing cells, Ca2+ dye fluorescence, FDSS; host cell line not named in the record; reference of the full effect not given here; in the data active = activation above about 50%; inconclusive = about 30% to 50%; inactive = below about 30%; note: 0% is about no effect; the text of the record puts the active cut at 80%
Target sequence (Q9GZU1 whole entry, looked up): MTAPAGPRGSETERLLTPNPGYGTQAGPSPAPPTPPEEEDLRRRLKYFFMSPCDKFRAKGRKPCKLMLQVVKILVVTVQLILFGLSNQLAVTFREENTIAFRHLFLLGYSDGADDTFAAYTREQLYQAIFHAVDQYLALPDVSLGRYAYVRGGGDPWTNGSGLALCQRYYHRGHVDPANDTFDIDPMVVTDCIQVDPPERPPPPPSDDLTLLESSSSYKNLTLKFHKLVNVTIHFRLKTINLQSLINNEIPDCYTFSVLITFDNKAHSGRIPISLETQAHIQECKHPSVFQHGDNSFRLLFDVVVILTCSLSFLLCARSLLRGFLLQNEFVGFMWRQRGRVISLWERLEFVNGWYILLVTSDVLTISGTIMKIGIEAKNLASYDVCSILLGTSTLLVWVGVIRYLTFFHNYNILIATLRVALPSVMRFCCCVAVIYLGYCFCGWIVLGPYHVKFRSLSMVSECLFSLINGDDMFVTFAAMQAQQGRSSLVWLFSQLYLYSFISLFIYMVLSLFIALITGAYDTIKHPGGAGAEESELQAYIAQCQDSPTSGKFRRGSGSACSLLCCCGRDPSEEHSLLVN
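Kinetic FDSS Ca2+ read in Tet-induced TRPML1-DL cells (ABD Ca8 dye plus quencher, 45-90 min RT loading): baseline, then compound, then 110 s agonist window; EC80 agonist 54-4 at 4uM final added afterwards for a 110 s antagonist window.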
gsp antagonist: antagonizes gsp, the McCune-Albright syndrome mutation | gsp-mutant cells, cAMP HTRF, 30 min; control for the full effect not named in the record | Potency, µM (titrated, usually from 76.9 µM), for the others: at the highest dose activity change, negative = inhibition, actives largely listed as inhibitors | hit rate 0.4% among 340,000; active = falling curve of any shape with a large fitted effect; inconclusive = falling curve, mostly with a smaller effect; inactive = flat or rising curve; cell line not stated here;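 note: intracellular cAMP measured with PDE inhibitor Ro 20-1724 present during compound exposure; potency is the fitted concentration of half-maximal effect; % is set by controls: 0 for no effect and ±100 for the full control effect; nearly all actives have a fitted effect of over 65% in size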
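Cells, 2000/well, grown 16–24 h in DMEM 10% FBS with 0.5 mg/ml G418, then compounds plus […] (300 uM addition stock), 30 min at 37C. cAMP read by HTRF (cAMP-d2 and anti-cAMP antibody-K in lysis buffer) after 30 min RT.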
gsp ag: activates gsp, the McCune-Albright syndrome mutation; Potency, µM (series often up to 76.9 µM), for the others: top-dose activation (cAMP increase), hits mostly activators; gsp mutant cells, cAMP HTRF, 30 min; control for the full effect not named in the record; hit rate 0.13% among 340,000; active = well fitted activation curve with a large enough effect; inconclusive = small, poorly fitted or top-dose-only effect, or another doubt; inactive = no such curve, though single readings can be large or run the other way; cell line not stated here;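 note: phosphodiesterase inhibitor Ro 20-1724 added with compounds to block cAMP breakdown; potency is the fitted concentration of half-maximal effect; nearly all actives have a fitted effect of over 60% in size; about a fifth of the inactives were tested at one dose only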
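Cells in DMEM/10% FBS with G418 were pretreated with compounds in DMSO plus […] (300 uM stock) for 30 min at 37C. cAMP was measured by HTRF (cAMP-d2 plus anti-cAMP antibody-K) after 30 min at room temperature.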
TRPML1 inh: inhibitors of human TRPML1 channel; hit rate 0.02% among 390,000; AID 624415; activity change, negative = inhibition, % (test concentration not listed); Q9GZU1; TRPML1-inducible cells, Ca2+ dye fluorescence, FDSS; active compounds read low; inhibition of EC80 agonist-evoked calcium signal; in the data active means activity change below about -50%; inconclusive means about -30% to -50%; inactive means above about -30%;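 note: stimulus is agonist 54-4 at its EC80 concentration; % is set by controls: 0 for no effect and ±100 for the full control effect; compound concentration not given in the record; the text of the record puts the active cut at -80%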
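Calcium fluorescence in TRPML1-DL cells induced overnight with Tet: a 110 s read after compound pin addition, then a 110 s antagonist read after challenge with 54-4 at 4 uM final (EC80).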
Menin-MLL FL inh: inhibitors of human menin-MLL interaction, wild-type MLL peptide. FP activity change, % at 61.4 µM. Fluorescence polarization, fluorescein-MLL peptide displacement from menin. 290,000 tested, under 10 active; inconclusive = falling polarisation curve, or a change in total fluorescence; inactive = total fluorescence flat and polarisation flat or rising; no compound was filed as active; the % refers to the polarisation; negative = inhibition;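 note: % of control where 0% means no effect; inhibitors lower the polarisation; unlabelled MLL peptide was the positive control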
Starred values were filed as active, the others as inactive; ? = inconclusive; . = no result given; & = joins results of further samples; [ ] = dose if it differs, or a comment.

[1] C=CCn1c(Cc2cccs2)nnc1SC/C=C/c1ccccc1
[2] O=C(NCc1ccccc1)N1CCC(CO)(Cc2cccc(F)c2)CC1
[3] c1coc(-c2cnc3ccccc3n2)c1
[4] c1ccc(C2CCC(N3CCN(c4ccccc4)CC3)CC2)cc1 (stereo unspecified)
[5] COc1ccc(-c2ccc(CN3C(CC(C)C)C(=O)N(Cc4cn(CC5CCCCC5)nn4)CCS3(=O)=O)cc2)cn1 (stereo unspecified)
[6] COc1ccc(-n2c(C)cc(-c3csc(NC(=O)c4ccc(S(=O)(=O)N(C)C)cc4)n3)c2C)cc1

assay / entry	1	2	3	4	5	6
ClpP mod	-1.2%	1.4%	3.7%	1.0%	-8.2%	-0.7%
TRPML1 ag	2.4	-0.3	0.1	1.5	0.1	-0.1
gsp antagonist	-16%	11%	.	1%	.	-27%
gsp ag	-37%[inhibitor]	0%	19%	-2%[15.4 µM]	-12%	11%[15.4 µM]
TRPML1 inh	14	-4	6	26	38	17
Menin-MLL FL inh	-1.6	-0.3	.	-4.7	.	9.7

[7] CCCCN(CC)CCCNC(=O)c1cc2c(=O)n(C)c3ccccc3c2n1C
[8] CCOC(=O)c1c(-c2ccccc2)oc2ccc(O)c(CN3CCCC3)c12
[9] O=C(NCc1ccc(Cl)cc1)Nc1ccc(F)cc1
[10] O=C(Nc1ccccc1)C1CCN(S(=O)(=O)c2cccs2)CC1
[11] COc1ccc([C@H]2CC(=O)C=C(c3ccc4cc[nH]c4c3)C2)cc1
[12] COc1ccc(-c2cc(C(F)(F)F)nc(S(=O)(=O)CCCC(=O)Nc3cc(C)on3)n2)cc1OC

assay / entry	7	8	9	10	11	12
ClpP mod	4.4%&4.2%	-5.6%	1.9%	1.3%	0.1%	.
TRPML1 ag	0.2	1.6	0.2	1.9	0.0	1.6
gsp antagonist	-9%	18%	15%	8%	-19%	10%
gsp ag	-93%[inhibitor]	52%	0%	42%	?	1%[15.4 µM]
TRPML1 inh	-3	5	12	-16	-8	-9
Menin-MLL FL inh	1.6	3.3	2.7	.	.	-2.5

[13] CCC(=O)N1CCc2cc(Br)cc(S(=O)(=O)CCC(=O)N3CCN(c4ccc(F)cc4)CC3)c21
[14] O=C(OCc1c(-c2ccccc2)ncc2ccccc12)c1ccc(C(F)(F)F)cc1
[15] COc1ccccc1OCCn1cc(C(=O)c2cccs2)c2ccccc21
[16] CCOC(=O)c1c(-c2ccc(C)o2)csc1NC(=O)CN(C)CC(=O)Nc1ccc(C)cc1
[17] CC(C)[C@H](NC(=O)N1CC(=O)Nc2ccccc21)C(=O)N[C@H](Cc1c[nH]c2ccccc12)C(=O)O
[18] O=C(COC(=O)c1ncc(Cl)c(Cl)c1Cl)c1ccc(Cl)s1

assay / entry	13	14	15	16	17	18
ClpP mod	1.9%	-4.7%	-27%	-5.9%	-3.8%	-0.2%
TRPML1 ag	-0.6	6.6	1.2	0.3	.	-0.3
gsp antagonist	.	-4%	.	-18%	0%	-8%
gsp ag	.	-19%	.	15%	.	18%[15.4 µM]
TRPML1 inh	-21	11	33	6	.	-6
Menin-MLL FL inh	.	.	.	4.4	-1.2	-2.3

An excerpt of these results, with bars between the fields:
no. | smiles | ClpP mod | TRPML1 ag | gsp antagonist | gsp ag | TRPML1 inh | Menin-MLL FL inh
4 | c1ccc(C2CCC(N3CCN(c4ccccc4)CC3)CC2)cc1 (stereo unspecified) | 1.0% | 1.5 | 1% | -2%[15.4 µM] | 26 | -4.7
5 | COc1ccc(-c2ccc(CN3C(CC(C)C)C(=O)N(Cc4cn(CC5CCCCC5)nn4)CCS3(=O)=O)cc2)cn1 (stereo unspecified) | -8.2% | 0.1 | . | -12% | 38 | .
6 | COc1ccc(-n2c(C)cc(-c3csc(NC(=O)c4ccc(S(=O)(=O)N(C)C)cc4)n3)c2C)cc1 | -0.7% | -0.1 | -27% | 11%[15.4 µM] | 17 | 9.7
7 | CCCCN(CC)CCCNC(=O)c1cc2c(=O)n(C)c3ccccc3c2n1C | 4.4%&4.2% | 0.2 | -9% | -93%[inhibitor] | -3 | 1.6
8 | CCOC(=O)c1c(-c2ccccc2)oc2ccc(O)c(CN3CCCC3)c12 | -5.6% | 1.6 | 18% | 52% | 5 | 3.3
9 | O=C(NCc1ccc(Cl)cc1)Nc1ccc(F)cc1 | 1.9% | 0.2 | 15% | 0% | 12 | 2.7
10 | O=C(Nc1ccccc1)C1CCN(S(=O)(=O)c2cccs2)CC1 | 1.3% | 1.9 | 8% | 42% | -16 | .
11 | COc1ccc([C@H]2CC(=O)C=C(c3ccc4cc[nH]c4c3)C2)cc1 | 0.1% | 0.0 | -19% | ? | -8 | .
12 | COc1ccc(-c2cc(C(F)(F)F)nc(S(=O)(=O)CCCC(=O)Nc3cc(C)on3)n2)cc1OC | . | 1.6 | 10% | 1%[15.4 µM] | -9 | -2.5
13 | CCC(=O)N1CCc2cc(Br)cc(S(=O)(=O)CCC(=O)N3CCN(c4ccc(F)cc4)CC3)c21 | 1.9% | -0.6 | . | . | -21 | .
14 | O=C(OCc1c(-c2ccccc2)ncc2ccccc12)c1ccc(C(F)(F)F)cc1 | -4.7% | 6.6 | -4% | -19% | 11 | .
15 | COc1ccccc1OCCn1cc(C(=O)c2cccs2)c2ccccc21 | -27% | 1.2 | . | . | 33 | .
16 | CCOC(=O)c1c(-c2ccc(C)o2)csc1NC(=O)CN(C)CC(=O)Nc1ccc(C)cc1 | -5.9% | 0.3 | -18% | 15% | 6 | 4.4
17 | CC(C)[C@H](NC(=O)N1CC(=O)Nc2ccccc21)C(=O)N[C@H](Cc1c[nH]c2ccccc12)C(=O)O | -3.8% | . | 0% | . | . | -1.2
18 | O=C(COC(=O)c1ncc(Cl)c(Cl)c1Cl)c1ccc(Cl)s1 | -0.2% | -0.3 | -8% | 18%[15.4 µM] | -6 | -2.3

The list goes on:
[19] N[C@@H](Cc1ccccc1)C(=O)N1CCC(C(=O)N[C@@H](Cc2c[nH]c3ccccc23)C(=O)O)CC1
[20] O=C(COC(=O)C1=COCCO1)Nc1ccc(Br)cc1Br
[21] CCOc1ccc(NC(=O)CSc2nnc(C3CC3)n2C)cc1S(=O)(=O)N1CCCCC1
[22] CC(=O)N1CCCc2cc(S(=O)(=O)N3CCC(C(=O)NC4CCCCC4)CC3)ccc21
[23] Cc1ccc(S(=O)(=O)CNC(=O)c2ccccc2)cc1
[24] O=C(COc1ccc(S(=O)(=O)N2CCOCC2)cc1)Nc1ccc(Cl)c(C(F)(F)F)c1

assay / entry	19	20	21	22	23	24
ClpP mod	.	-21%	-0.6%	-1.4%	1.3%	-0.1%
TRPML1 ag	-0.7	1.1	-0.2	1.0	-0.3	1.1
gsp antagonist	11%	-3%	2%	.	3%	-15%
gsp ag	-22%[15.4 µM]	-3%	-19%	.	-43%[inhibitor]	-31%
TRPML1 inh	10	11	9	-17	5	-7
Menin-MLL FL inh	-8.7	.	.	.	3.5	1.2

[25] COc1ccc(C(=O)c2coc3ccc(O)c(CN4CCCC4)c23)cc1
[26] COc1ccc(-c2ccnc(SCC(=O)Nc3ccccn3)n2)cc1
[27] CCCn1c(CNC(=O)c2cccs2)nc2ccccc21
[28] N#Cc1c(N2CCOCC2)nsc1-c1ccccc1
[29] O=C(CN1CCCCCC1)Nc1ccc(Oc2ccccc2)cc1
[30] COc1ccc(NC(=O)CSc2nnnn2-c2ccccc2F)cc1

assay / entry	25	26	27	28	29	30
ClpP mod	1.4%	35µM*	0.4%	-0.4%	.	-2.3%
TRPML1 ag	0.0	0.1	-0.3	-0.7	?	1.3
gsp antagonist	3%	-8%	-9%	4%	2%	8%
gsp ag	-37%	-55%[inhibitor]	26%	19%[15.4 µM]	14%	-7%
TRPML1 inh	16	1	0	4	-12	38
Menin-MLL FL inh	2.6	0.9	-0.6	-0.2	-1.4	-8.2

[31] Cc1cccc(CSc2ncc(Cl)c(C(=O)Nc3sc4c(c3C(N)=O)CCCC4)n2)c1
[32] CCOc1cc(/C=C2\C(=N)N3N=C(C)SC3=NC2=O)ccc1OCCOc1ccccc1
[33] CCOc1ccc(S(=O)(=O)Nc2cccc(C(=O)NCC(c3ccco3)N(C)C)c2)cc1 (stereo unspecified)
[34] CCCC(=O)n1nc(-c2ccccc2)nc1SC
[35] COc1cc2[nH]c(=O)n(CCCCCC(=O)N3CCN(c4ccc(Cl)cc4)CC3)c(=O)c2cc1OC
[36] Cc1nn(C)c2c1c(-c1ccccc1)cc(=O)n2Cc1ccc(F)cc1Cl
[37] COc1ccc(Cl)cc1NC(=O)c1sc2nc3c(cc2c1N)CN(C)CC3
[38] O=C(O)CCCC(=O)Nc1nc(-c2ccc(F)cc2)cs1
[39] CC(C)(C)N(Cc1ccccc1)C(=O)CSc1nnc(CNc2ccc(F)cc2)o1

assay / entry	31	32	33	34	35	36	37	38	39
ClpP mod	-0.9%	.	-5.5%	2.8%	-22%	-20%	-14%	0.0%	2.1%
TRPML1 ag	-0.2	-0.4	5.5	0.0	-0.4	3.3	1.1	-1.1	0.7
gsp antagonist	.	-5%	6%	1%	.	.	.	2%	-28%
gsp ag	.	-47%[inhibitor]	-26%	-30%[inhibitor]	.	.	.	1%	25%
TRPML1 inh	-2	5	-12	-5	0	11	3	21	24
Menin-MLL FL inh	.	0.3	.	0.4	.	.	.	-1.8	0.2
